# D2 ag – activates the human D2 dopamine receptor; P14416; DiscoveRx PathHunter D2 beta-arrestin, luminescence, 90 min; 100% = 57 uM dopamine signal; activation, % (no concentration beside the values); hit rate 0.084% among 360,000; in the data active = activation above about 40%; inconclusive = about 15% to 40%; inactive = below about 15%; note: compound concentration not given in the record; the text of the record calls up to 30% inactive
# Target sequence (P14416 whole entry, looked up): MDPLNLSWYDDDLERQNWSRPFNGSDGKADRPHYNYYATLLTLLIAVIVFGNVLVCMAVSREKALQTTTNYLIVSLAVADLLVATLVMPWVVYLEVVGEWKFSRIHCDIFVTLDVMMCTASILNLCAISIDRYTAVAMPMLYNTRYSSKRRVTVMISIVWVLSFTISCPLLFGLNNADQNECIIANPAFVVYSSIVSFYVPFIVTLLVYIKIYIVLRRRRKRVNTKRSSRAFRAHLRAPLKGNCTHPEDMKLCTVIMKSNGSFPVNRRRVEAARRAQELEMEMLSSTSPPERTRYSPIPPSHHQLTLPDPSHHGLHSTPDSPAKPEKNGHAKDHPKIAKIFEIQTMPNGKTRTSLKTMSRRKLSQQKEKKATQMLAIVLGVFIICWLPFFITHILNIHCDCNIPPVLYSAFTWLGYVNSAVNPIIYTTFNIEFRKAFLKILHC
#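 DiscoveRx PathHunter D2 beta-arrestin cells (2,100/well) attached overnight, then compound-stimulated 90 min at 37 C in HBSS/10 mM HEPES/0.1% Tween-20 buffer; beta-galactosidase complementation read by luminescence after 1 h at ambient temperature. Dopamine 57 uM final (EC100) as control.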
# TRPML1 blocker – human mucolipin-1 channel inhibition. TRPML1-inducible cells, Ca2+ dye fluorescence, FDSS; hits give low values; inhibition of EC80 agonist-evoked calcium signal. activity change, negative = inhibition, % (no concentration beside the values). hit rate 0.02% among 390,000; in the data active means activity change below about -50%; inconclusive means about -30% to -50%; inactive means above about -30%;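 note: stimulus is agonist 54-4 at its EC80 concentration; % is set by controls: 0 for no effect and ±100 for the full control effect; compound concentration not given in the record; the text of the record puts the active cut at -80%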
# Target sequence (Q9GZU1 whole entry, looked up): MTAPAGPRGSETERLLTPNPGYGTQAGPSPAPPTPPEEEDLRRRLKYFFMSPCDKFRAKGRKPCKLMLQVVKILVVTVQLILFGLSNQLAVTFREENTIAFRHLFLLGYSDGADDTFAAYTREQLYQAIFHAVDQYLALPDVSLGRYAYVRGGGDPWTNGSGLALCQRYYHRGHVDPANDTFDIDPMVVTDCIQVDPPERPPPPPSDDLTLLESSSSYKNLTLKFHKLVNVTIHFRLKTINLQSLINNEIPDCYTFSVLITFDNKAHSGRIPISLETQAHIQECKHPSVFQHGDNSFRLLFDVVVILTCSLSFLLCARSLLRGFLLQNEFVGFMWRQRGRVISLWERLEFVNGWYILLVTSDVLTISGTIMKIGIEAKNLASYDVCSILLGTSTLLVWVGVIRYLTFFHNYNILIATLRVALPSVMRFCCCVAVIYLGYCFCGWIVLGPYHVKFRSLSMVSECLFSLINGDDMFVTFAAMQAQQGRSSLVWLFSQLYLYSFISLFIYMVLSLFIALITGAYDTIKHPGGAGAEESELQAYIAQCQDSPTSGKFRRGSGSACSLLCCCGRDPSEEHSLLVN
#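 TRPML1-DL cells, Tet-induced overnight (~16 h, 37 °C) at 1,500 cells/well, were loaded with Ca8 no-wash dye plus quencher for 45-90 min at room temperature. Compounds were pinned during FDSS kinetic reading; agonist 54-4 at EC80 (4 uM final) then added.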
# PINK1 expr mod – PINK1 expression modulation. Potency, µM (highest dose often 76.6 µM), without a hit: at the top dose activation (PINK1 increase), hits mostly activators. hit rate 0.2% among 410,000. PINK1 immunofluorescence, high-content cytometry, 24 h. AID 624263; active = well fitted activation curve with a large enough effect; inconclusive = small, poorly fitted or top-dose-only effect; inactive = flat fitted curve, though single readings scatter; cell line not stated here;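 note: potency is the fitted concentration of half-maximal effect; % of control where 0% means no effect; nearly all actives have a fitted effect of over 65% in size; a mitochondrial uncoupler was the plate control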
#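 Stable cell line treated 24 h with compounds at 5 concentrations (CCCP controls), then fixed and immunostained for PINK1 plus nuclear and cell stains; PINK1 immunofluorescence quantified by laser-scanning microplate cytometry.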
# D2 PAM – human D2 receptor positive allosteric modulation. AID 624464. hit rate 0.23% among 360,000. potentiation, % (no concentration beside the values). DiscoveRx D2 beta-arrestin cells, luminescence, 90 min; 100% = 57 uM dopamine signal. P14416; active = potentiation of 50% or more; inconclusive = 30% to 50%; inactive = 30% or less;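 note: compound concentration not given in the record; tested on top of an EC20 dose of dopamine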
#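 PathHunter D2 cells, attached overnight at 37 deg C, received compound in DMSO plus dopamine at EC20 (50 nM final) for 90 min at 37 deg C. Beta-arrestin recruitment was read as luminescence after 1 h with detection reagent at ambient temperature.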
# TRPML1 agonist – human mucolipin-1 channel agonism; AID 624414; TRPML1-expressing cells, Ca2+ dye fluorescence, FDSS; host cell line not named in the record; reference of the full effect not given here; activation, % (concentration not given with the values); hit rate 0.12% among 410,000; in the data active = activation above about 50%; inconclusive = about 30% to 50%; inactive = below about 30%; note: 0% is about no effect; the text of the record puts the active cut at 80%
#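 Kinetic FDSS Ca2+ read in Tet-induced TRPML1-DL cells (ABD Ca8 dye plus quencher, 45-90 min RT loading): baseline, then compound, then 110 s agonist window; EC80 agonist 54-4 at 4uM final added afterwards for a 110 s antagonist window.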
# Six1-Eya2 inh – inhibitors of human Six1/Eya2 interaction. activity change, % (concentration not given with the values). hit rate 0.56% among 360,000. AlphaScreen GST-Six1/His-Eya2 binding, biochemical; hits give low values; control for the full effect not named in the record. Q15475+O00167; in the data active = activity change below about -65%; inconclusive = about -30% to -65%; inactive = above about -30%; note: % is set by controls: 0 for no effect and ±100 for the full control effect
#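 Compounds are tested against tagged Six1 and Eya2 proteins bridged by glutathione donor and nickel acceptor beads; after a one-hour incubation at 37 °C without light, AlphaScreen emission is recorded.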
# Active calls of the source: *; ? = inconclusive; . = not tested or not shown; & = joins results of further samples; [ ] = dose if it differs, or a comment.
SMILES,D2 ag,TRPML1 blocker,PINK1 expr mod,D2 PAM,TRPML1 agonist,Six1-Eya2 inh
Cc1cn([C@H]2C[C@H](O)[C@@H](/C=C/C(=O)NCC(c3ccccc3)c3ccccc3)O2)c(=O)[nH]c1=O,-4.2,-3,1.5%,4,-0.6,-5
C#CC[N+]1(CC#Cc2cccc(C)c2)CCCCC1,-3.1,13,-1.2%,-3,-0.5,-3
CC(C)Nc1nc(-c2ccccn2)nc(-c2ccccc2)c1C#N,-1.7,-3,5.6%,-4,-0.7,8
COc1nc(Nc2ccc(-c3nc4ccccc4o3)cc2)nc(N2CCOCC2)n1,-3.6,-4,11%,2,2.0,17
CCN(CC)S(=O)(=O)c1ccc(C)c(NC(=O)CNCc2ccccc2OC)c1,?,-7,2.0%,1,2.7,9
Cc1ccc(C(=O)COC(=O)CNC(=O)c2ccc(Br)o2)cc1[N+](=O)[O-],-17,-16,5.5%,-46,-0.6,15
Cn1c(CN2CCN(CCO)CC2)c(C#N)c2ccccc21,-5.5,36,2.3%,-17,0.9,-13
COCc1cc(C)nc(SCC(=O)Nc2cc(C(F)(F)F)ccc2N2CCOCC2)c1C#N,-1.1,-14,1.7%,8,-0.8,18
Cc1cccc(C)c1NC(=O)Cn1nc(C)c2sc3ccccc3c2c1=O,.,-27,0.7%,.,-0.3,.
COc1ccc(-c2c(C(C)=O)c(C)n(C)c2C)cc1,5.5,-6,-0.8%,-17,0.2,5
c1ccc(OCCN2CCOCC2)cc1,-0.3,-7,0.1%,-2,0.2,-3
Cc1cccc(-c2noc(-c3ccc(NCc4ccco4)c([N+](=O)[O-])c3)n2)c1,.,-1,1.8%,.,-0.5,.
c1cc2c3c(cccc3c1)C(N1CCCCCC1)=N2,-2.0,-1,0.5%,-12,-0.3,-10
COc1ccc(C(=O)Nc2nnc(C)s2)cc1S(=O)(=O)N1CCOCC1,-1.5,-13,-0.8%,-1,-0.6,-2
COc1ccc(NC(=O)COc2ccc(/C=C/c3cccc[n+]3C)cc2OC)cc1,2.1,1,1.7%,-7,0.0,2
CN(C)CCC(O)c1ccccc1 (stereo unspecified),-2.5,13,-0.6%,-11,0.1,8
CCn1c(SCc2nc3ccccc3s2)nnc1-c1ccccc1,2.9,-3,-0.1%,-10,-0.6,-2
CCc1ccc(CC2(O)CC(C)N(C)CC2C)cc1 (stereo unspecified),-2.0,9,-0.6%,-29,0.0,-3
O=C(NCc1ccccc1)C(=O)Nc1c2c(nn1-c1ccc(F)cc1)CSC2,.,-8,14%,.,-0.3,.
Cc1ccccc1NC(=O)N1C2CCC1CC(O)(c1cccnc1)C2 (stereo unspecified),-1.1,-9,-1.3%,1,4.3,1
CCOC(=O)c1ccc(NC(=S)Nc2cc(C)cc(C)n2)cc1,-16,5,1.9%,-1,0.6,-4
CCCCn1c(=NC(=O)C(C)(C)Oc2ccc(Cl)cc2)c(C(=O)OCC)cc2c(=O)n3ccccc3nc21,.,-16,0.5%,.,-0.1,.
CCOc1ccccc1N1CC(C(=O)Nc2cc(S(C)(=O)=O)ccc2Cl)CC1=O (stereo unspecified),0.8,1,-2.2%,-18,-0.1,10
CCOc1cc(/C=C/C(=O)OCC(=O)NC2CCS(=O)(=O)C2)ccc1OCc1ccccc1 (stereo unspecified),5.7,5,1.9%,-10,4.4,11
c1ccc2c(C[C@@H]3CNCCN3CCCCC3CCCCC3)cccc2c1,0.6,1,14%,-18,-0.3,-7

# The last two compounds of the part above are carried over, then new ones follow.
SMILES,D2 ag,TRPML1 blocker,PINK1 expr mod,D2 PAM,TRPML1 agonist,Six1-Eya2 inh
CCOc1cc(/C=C/C(=O)OCC(=O)NC2CCS(=O)(=O)C2)ccc1OCc1ccccc1 (stereo unspecified),5.7,5,1.9%,-10,4.4,11
c1ccc2c(C[C@@H]3CNCCN3CCCCC3CCCCC3)cccc2c1,0.6,1,14%,-18,-0.3,-7
Cc1c(C=O)c2ccccc2n1CC(=O)NCc1ccc2c(c1)OCO2,1.4,6,-1.4%,0,-0.2,-17
Cc1ccc(C)c(S(=O)(=O)NCc2ccc3c(c2)OCO3)c1,4.6,-23,-0.4%,-4,0.3,3
COC(=O)c1ccc2c(c1)N(Cc1ccc(Cl)cc1)C(=O)c1ccccc1S2,.,45,-1.1%,.,5.4,.
Cc1nc(-c2cccc(NC(=O)c3cccs3)c2)cs1,-1.7,16,-0.6%,-31,1.0,-10
CCOc1ccccc1NC(=O)COC(=O)C(CC)c1ccccc1 (stereo unspecified),-6.3,-17,3.5%,-7,0.5,0
c1ccc(-c2noc(C34CC5CC(CC(C5)C3)C4)n2)nc1,1.3,3,-0.3%,-7,0.7,7
O=C(C(=O)N1CCN(c2ccccc2Cl)CC1)c1c[nH]c2ccccc12,2.4,5,-0.1%,-9,0.2,-5
COc1cc(-c2noc(-c3ccc(N4CCCC4)c([N+](=O)[O-])c3)n2)cc(OC)c1OC,.,3,2.0%,.,-0.8,.
CNC(=O)c1ccc(NC(=O)c2cc(S(=O)(=O)N(C)C)ccc2N2CCCC2)cc1,-7.5,8,-1.5%,-2,0.2,2
Cc1ccc(N2CC(NC(=O)Cc3ccc(F)cc3)CC2=O)cc1 (stereo unspecified),.,11,0.1%,.,-1.1,.
COc1ccc(CNC(=O)COc2ccccc2C(=O)c2cnn(-c3ccccc3)c2)cc1OC,1.2,5,1.9%,2,3.2,1
COC(=O)Cc1cc(=O)n(-c2nc3ccccc3[nH]2)[nH]1,-3.0,-7,4.2%[38.3 µM],9,-0.1,-92*
Cc1ccc(CN(Cc2ccco2)C(=O)c2ccc(Cl)cc2)o1,.,30,-0.1%,.,2.8,.
CC(C)CN(C(=O)COc1ccc([N+](=O)[O-])cc1)c1c(N)n(CC(C)C)c(=O)[nH]c1=O,3.1,-10,-0.1%,-1,-0.2,7
Cc1ccc(OCC(=O)OCc2cc(=O)n3nc(-c4cccs4)sc3n2)cc1C,.,1,1.3%,.,-0.5,.
Cc1ccc(CSc2ccc(-c3ccco3)nn2)cc1,1.2,-24,7.6%,1,0.8,0
O=C(N/N=C\c1ccc(Sc2ccccn2)o1)c1cccc(Br)c1,-3.6,-2,-1.3%,-11,1.1,?
N#CCCN(C(=O)COC(=O)c1ccc(S(=O)(=O)N2CCCC2)cc1)c1cccc(Cl)c1,-7.6,-9,1.1%,-1,0.1,3
O=C(O)CSCCCC(=O)Nc1ccc(Br)cc1,1.3,16,-3.7%,-1,3.2,0
CCC1Oc2ccccc2N(CC(=O)NCCCN2CCOCC2)C1=O (stereo unspecified),-2.4,-6,0.1%,-6,0.0,8
C[C@@H]1CN([C@H](C)CO)C(=O)CCCn2nncc2CO[C@@H]1CN(C)C(=O)Nc1cccc2ccccc12,3.9,9,2.6%,6,0.8,13
COc1ccc(C(C)(NC(C)=O)c2nc(-c3cccnc3)cs2)cc1 (stereo unspecified),5.2,.,0.7%,-3,-0.4,11
Cc1ccc(S(=O)(=O)N(C)C)cc1NC(=O)COC(=O)c1ccc2c(c1)OCO2,-0.4,-20,-0.2%,-30,1.8,1
COc1cc(OC)cc(C(=O)N[C@@H](CCSC)c2nc3ccccc3[nH]2)c1,-5.4,14,-0.9%,-34,1.6,1
Cc1ccc(/C=N/c2sc3c(c2C#N)CCCCC3)o1,14,16,-1.9%,-3,1.1,-30
# Following part.
SMILES,D2 ag,TRPML1 blocker,PINK1 expr mod,D2 PAM,TRPML1 agonist,Six1-Eya2 inh
COC(C)(C)[C@H](O)COc1c2ccoc2cc2oc(=O)ccc12,-0.4,-14,0.4%,-2,0.1,10
Cc1ccccc1C(=O)Nc1ccc(N2CCOCC2)nc1,-1.2,19,2.4%,-1,0.1,10
O=C(Oc1ccc(Br)cc1C(=S)N1CCCC1)c1ccccc1Cl,-3.8,65,-1.4%,-17,1.5,?
Cc1ccc2c(c1)N(C(=O)N1CCC(C(=O)NCc3ccccc3C)CC1)CC(C)O2 (stereo unspecified),.,12,1.7%,.,-0.5,.
COc1ccccc1N(CC(=O)N1CCCC1)S(=O)(=O)c1ccc(C)cc1,-4.0,7,0.6%,-4,0.1,5
C=CCOC(=O)C1=C[C@@H](c2ccccc2)C[C@@H](OCc2ccc(CO)cc2)O1,-1.3,42,3.2%,-2,1.0,3
Cc1ccc(/C=N/NC(=O)CSc2nc3ccccc3n2Cc2ccc(Cl)cc2)o1,-3.0,5,6.9%,-7,1.0,-23
CNC(=O)c1c[nH]c2ccc(S(=O)(=O)Nc3ccccc3F)cc2c1=O,7.4,-16,-2.0%,-4,1.4,?
Cc1ccccc1Cn1ccc(-c2ccc(Cl)cc2)c(C#N)c1=O,-3.3,7,0.0%,-12,-0.5,5
COc1ccc(C(=O)NC(=S)NCCO)cc1Br,-4.2,8,-2.2%[38.3 µM],-4,0.0,0
Cn1c(=O)c2c(SCC(=O)N3CCCCC3)nc(-c3ccccc3F)nc2n(C)c1=O,-2.8,-5,2.2%,-11,0.2,11
Cc1ccc(Nc2c(-c3ccc(N4CCOCC4)cc3)nc3ncccn23)c(C)c1,5.4,20&4,-0.5%&1.3%,3,1.4&-0.6,-3
Cc1ccc(C(=O)OCC(=O)N2CCC(c3ccccc3)=N2)c(C)c1,-4.1,0,9.8%,3,-0.3,19
Cc1cc(-c2n[nH]c(=S)n2Cc2ccco2)n(C)n1,-6.2,-16,2.8%,-10,-0.3,2
COc1ccc(C(=O)NCC(=O)OCC(=O)N2CC(C)CC(C)C2)cc1 (stereo unspecified),-0.1,7,-0.5%,7,0.0,0
CCN1CCN(c2ccc(S(=O)(=O)N3CCCCC3)cc2NC(=O)c2ccc([N+](=O)[O-])s2)CC1,?,-1,-1.7%,74*,1.0,-4
COCCNc1nc2c(c(=O)[nH]c(=O)n2C)n1CCCc1ccccc1,-3.6,-10,0.4%,0,-0.4,-8
O=C1N=C(N2CCc3ccccc3C2)S/C1=C\c1cccc(O)c1,-2.9,-6,-1.7%,-37,0.3,-12
O=C(Nc1cccc(C(F)(F)F)c1)c1cc2nc(-c3ccco3)cc(C(F)(F)Cl)n2n1,.,-3,0.1%,.,-0.5,.
O=C(C1CC1)N1CCc2cc(Br)cc(S(=O)(=O)N3CCN(c4cccc(Cl)c4)CC3)c21,.,14,0.9%,.,-0.4,.
O=c1c[n+]([O-])c2ccccc2n1OCc1c(F)cccc1F,0.2,2,0.4%,0,2.9,0
Cc1cc2nc(-c3cccc(NC(=O)CSc4ccc(Cl)cc4)c3)oc2cc1C,.,15,-1.7%,.,-0.8,.
CN1CCC(N(C)C(=O)c2cccc(S(=O)(=O)N3CCOCC3)c2)CC1,-4.1,4,0.6%,-10,0.5,2
N/C(Cc1ccc([N+](=O)[O-])cc1)=N\OC(=O)COc1cccc2ccccc12,0.0,-6,2.6%[38.3 µM],3,4.3,-10

# Compound profiles, from the list above:
# O=C(C1CC1)N1CCc2cc(Br)cc(S(=O)(=O)N3CCN(c4cccc(Cl)c4)CC3)c21 is listed with D2 ag = .; TRPML1 blocker = 14; PINK1 expr mod = 0.9%; D2 PAM = .; TRPML1 agonist = -0.4; Six1-Eya2 inh = .
# Cc1ccc2c(c1)N(C(=O)N1CCC(C(=O)NCc3ccccc3C)CC1)CC(C)O2 (stereo unspecified) is listed with D2 ag = .; TRPML1 blocker = 12; PINK1 expr mod = 1.7%; D2 PAM = .; TRPML1 agonist = -0.5; Six1-Eya2 inh = .
